# Screening results: PubChem BioAssay, Southern Research Institute
# Mtb H37Rv: Mycobacterium tuberculosis H37Rv growth inhibition, putative kinase inhibitor library, confirmatory dose response (AID 2842); 24,000 tested, 5.2% active; M. tuberculosis H37Rv growth inhibition; higher % means a stronger effect; some inactives read as strong as hits; one-dose inhibition, % at 10 µg/mL; IC90 in µg/mL for titrated hits;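 active = confirmed in a dose series; inconclusive = mostly over 85% at the one dose but not retested; inactive = below 85% or not confirmed; about a fifth of its hits are not listed in these tables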;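 note: bacteria incubated one week before Alamar blue readout; 0% = bacteria only wells and 100% = bacteria with high antibiotic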
# Starred values were filed as active, the others as inactive; ? = inconclusive.
SMILES	Mtb H37Rv
COc1cc(OC)cc(C(=O)Nc2nc3ccccc3s2)c1	5.4%
Fc1ccc(N2CCN(c3nc(Nc4ccccc4)c4nccnc4n3)CC2)cc1	1.69µg/mL*
CN(c1ccccc1)S(=O)(=O)c1ccc(C(=O)Nc2nc(-c3ccncc3)cs2)cc1	1.7%
CCOC(=O)c1nn(-c2ccc(F)cc2)c(=O)c2c(NC(=O)c3cc(OC)cc(OC)c3)scc12	-0.1%
O=C(Nc1cc2c3c(c1)CCC(=O)N3CCC2)c1ccccc1	-1.9%
COc1cccc(C(c2sc3nc(C)nn3c2O)N2CCN(CCO)CC2)c1 (configuration not stated)	1.6%
CCCN(CCC)S(=O)(=O)c1ccc(C(=O)Nc2sc3c(c2C#N)CCN(C(C)C)C3)cc1	-0.3%
CCOC(=O)c1nn(-c2ccccc2)c(=O)c2c(NC(=O)c3ccc(C)c(C)c3)scc12	6.1%
COc1cc(-c2cc(=O)c3cc(O)ccc3o2)cc(OC)c1OC	-15.5%
COC(=O)c1cc2ccccc2c(=O)s1	37.8%
CCc1ccc(NC(=O)c2oc3ccccc3c2NC(=O)Cc2cccs2)cc1	3.3%
Cc1cc(C)cc(NC(=O)CSc2nc3c(c(=O)n2-c2ccc(F)cc2)SCC3)c1	-1.1%
COc1ccccc1/C=C/C=N\NC(=O)CCn1cnc2ccccc21	-3.3%
COc1ccc(C)cc1NC(=O)CCN1C(=O)c2ccccc2S1(=O)=O	-5.5%
O=C(Nc1ccc2c3c(cccc13)CC2)c1ccc2ccccc2c1	5.5%
COc1ccc(CCNC(=O)CSc2nncc(=O)n2N)cc1OC	-8.6%
COC(=O)c1ccc(NC(=O)CSc2nnc(C)c(=O)n2N)cc1	6.2%
CCCCOc1ccc(C(=O)Nc2nnc(-c3ccccc3Cl)s2)cc1	11.4%
CCOC(=O)c1nn(-c2ccc(F)cc2)c(=O)c2c(NC(=O)c3ccccc3)scc12	8.3%
O=C(CCCl)Nc1c(C(=O)Nc2ccc(Cl)cc2)oc2ccccc12	5.3%
CCOc1ccc(-c2cccc(NC(=O)c3ccc4c(c3)OCO4)c2)nn1	-3.1%
Cc1ccc(Nc2nc(NCCOCCO)nc(N)c2[N+](=O)[O-])cc1	-12.4%
COc1ccc(C)c2sc(N3CCN(c4nc5c(OC)ccc(C)c5s4)CC3)nc12	-2.4%
CC(O)Cn1c(N2CCN(c3ccccc3)CC2)nc2c1c(=O)[nH]c(=O)n2C (configuration not stated)	-13.4%
Cc1ccc(-c2nc(C(N)=O)c3[nH]c(=O)n(-c4ccc(C)c(C)c4)c3n2)o1	-5.3%

# Brought forward from above: three entries; new compounds follow.
SMILES	Mtb H37Rv
COc1ccc(C)c2sc(N3CCN(c4nc5c(OC)ccc(C)c5s4)CC3)nc12	-2.4%
CC(O)Cn1c(N2CCN(c3ccccc3)CC2)nc2c1c(=O)[nH]c(=O)n2C (configuration not stated)	-13.4%
Cc1ccc(-c2nc(C(N)=O)c3[nH]c(=O)n(-c4ccc(C)c(C)c4)c3n2)o1	-5.3%
Cn1c(=O)c2c(SCC(=O)Nc3ccc4c(c3)OCCO4)nc(-c3ccc(F)cc3)nc2n(C)c1=O	-10.3%
O=C(CSc1nc(=O)n(CC2CCCO2)c2c1CCCC2)Nc1ccc([N+](=O)[O-])cc1 (configuration not stated)	-2.0%
NC(=O)c1ccc(NC(=O)C2COc3ccccc3O2)cc1 (configuration not stated)	-20.4%
O=C(Nc1nccs1)c1ccc2c(c1)CCCC2	3.85µg/mL*
CCOc1ccc(Nc2c(CCC(C)C)c(C)c(C#N)c3nc4ccccc4n23)cc1	1.2%
CC(C)(C)CC(=O)Nc1c(C(=O)Nc2ccc(F)c(Cl)c2)oc2ccccc12	0.3%
O=C(Nc1nc2ccc(S(=O)(=O)N3CCCCC3)cc2s1)c1ccc(F)cc1	10.9%
COc1ccc(Cl)c2sc(NC(=O)c3cccc(S(C)(=O)=O)c3)nc12	-11.7%
CC(=O)c1cccc(NC(=S)N2CCN(c3ccccc3F)CC2)c1	-12.1%
Cc1ccc(NC(=O)CSc2ccc3nnc(-c4ccc(C)cc4)n3n2)cc1	4.1%
Cc1ccc(-n2c(SCC(=O)NCc3ccccc3)nc3c(c2=O)SCC3)cc1	15.3%
COc1ccc(CCNc2cnnc(NCCc3ccc(OC)cc3)n2)cc1	24.5µg/mL*
COc1ccc(Cl)cc1NC(=O)CSc1nnc(C)c(=O)n1N	-10.0%
CCOc1ccc(C(=O)Nc2nnc(-c3cc(Cl)ccc3Cl)o2)cc1	78.6%
COc1cc(/C=N\NC(=O)c2cc(-c3ccc(C)s3)[nH]n2)ccc1O	76.0%
Cc1nnc(SCCn2c(N3CCCCC3)nc3c2c(=O)[nH]c(=O)n3C)s1	-1.5%
COc1cccc(C2c3c(oc4cc(C)c(C)cc4c3=O)C(=O)N2c2cc(C)on2)c1OC (configuration not stated)	-3.5%
O=C(COc1ccc2ccccc2c1)Nc1nnc(-c2ccc(F)cc2)s1	11.6%
COc1ccc(NC(=O)c2oc3ccccc3c2NC(=O)Cc2ccccc2)cc1	-0.1%
CN1C(=O)c2cccc(NC(=O)c3ccc4ccccc4c3)c2C1=O	-10.8%
COc1ccc(-n2nc3c(c2NC(=O)c2ccc(OC(C)C)cc2)CSC3)cc1	19.4%
Cc1ccnc(SCCn2c(N3CCOCC3)nc3c2c(=O)[nH]c(=O)n3C)n1	4.8%
Cc1nnc(NC(=O)CC2CCS(=O)(=O)C2)s1 (configuration not stated)	-3.0%
Cc1cc(Br)ccc1NS(=O)(=O)c1cc2c3c(c1)CCN3C(=O)CC2	2.0%
COc1ccc(/C=C(\C#N)C(=O)Nc2c(C)cc(C)cc2C)cc1	-1.1%
COc1ccc(C2C(C#N)=C(N)OC(C)=C2C(=O)OCc2ccccc2)cc1 (configuration not stated)	-0.9%
CCOC(=O)c1oc2ccccc2c1NC(=O)c1ccc(-c2ccccc2)cc1	-0.6%
COc1cccc(NC(=O)C(=O)Nc2cc3c4c(c2)CCN4C(=O)CC3)c1	7.5%
O=C(NCC1CCCO1)C(=O)Nc1cc2c3c(c1)CCC(=O)N3CCC2 (configuration not stated)	-6.8%
CC(C)(Oc1ccc(Cl)cc1)C(=O)Nc1c(C(=O)Nc2ccc3c(c2)OCO3)oc2ccccc12	-8.0%
COCC(C)NC(=O)c1c(O)nc2sccn2c1=O (configuration not stated)	-9.2%
COc1ccc(-c2nc(SCC(=O)N3CCN(c4ccccc4)CC3)c3c(=O)n(C)c(=O)n(C)c3n2)cc1	0.1%
CN(C(=O)c1ccc(Cl)cc1)c1nnc(C23CC4CC(CC(C4)C2)C3)s1	-3.9%
COC(=O)c1ccc(OC2OC(COC(C)=O)C(OC(C)=O)C(OC(C)=O)C2NC(C)=O)cc1 (configuration not stated)	-1.9%
CCOc1ccccc1NC(=O)c1oc2ccccc2c1NC(=O)c1ccc(OC)cc1	1.1%
O=C(Nc1nc2c(s1)CCCC2)c1ccc(-c2nc3ccccc3s2)s1	0.2%
Cc1cc(C)nc(SCc2cc(=O)c(OC(=O)COc3ccccc3C)co2)n1	-7.3%
CC(=O)c1sc(NC(=O)c2ccccc2)nc1-c1ccccc1	8.3%
CCc1ccc(S(=O)(=O)c2nnn3c2nc(NCc2ccc(OC)cc2)c2ccccc23)cc1	4.0%
O=C(O)c1ccccc1SC1CC(=O)N(c2ccc(O)cc2)C1=O (configuration not stated)	-18.1%
CCOc1cc(C(=O)N2CCN=C2SCc2cccnc2)cc(OCC)c1OCC	-1.9%
O=C(/C=C\c1ccccc1)Nc1nnc(-c2ccc(Cl)cc2)s1	9.9%
C/C(=N\NC(=O)CCn1c2ccccc2c2ccccc21)c1ccc(Cl)s1	34.1%
CC(=O)c1ccc(NC(=O)CSc2ccc3nnc(-c4ccccn4)n3n2)cc1	-6.0%
COc1cccc(NC(=O)c2ccc(S(=O)(=O)N3CCCC3)cc2)c1	0.2%
Cc1ccc(/C=C/C(=O)O)cc1S(=O)(=O)Nc1ccc2c(c1)OCO2	8.6%
CCOC(=O)c1oc2ccccc2c1NC(=O)C1CCCC1	16.9%
O=C(CSc1ccc2nnc(-c3cccc(F)c3)n2n1)Nc1cccc(Cl)c1	-5.8%
CS(=O)(=O)c1cccc(-c2nnc(NC(=O)c3cccc(F)c3)o2)c1	46.7%
CC(=O)Nc1ccc(NC(=O)Cc2csc(NS(=O)(=O)c3ccc(C)cc3)n2)cc1	-10.2%

# (listing goes on)
SMILES	Mtb H37Rv
CC(=O)c1ccc2[nH]c(C)c(CN(C)C3CCCCC3)c(=O)c2c1	-5.3%
CCOc1ccc2nc(Nc3nc4ccc(F)cc4s3)sc2c1	78.9%
CCCn1c(N2CCN(Cc3cccc(C)c3)CC2)nc2c1c(=O)[nH]c(=O)n2C	12.1%
O=C(Nc1nnc(-c2cccs2)o1)c1ccccc1	?
CCOC(=O)c1ccc(-c2ccc(/C=C(\C#N)c3nc4ccccc4c(=O)[nH]3)o2)cc1	25.4%
O=C(CC1SC(=O)NC1=O)Nc1nccs1 (configuration not stated)	9.5%
CCc1ccc(C(=O)c2cn(Cc3cccc(OC)c3)c3cc4c(cc3c2=O)OCCO4)cc1	72.5%
Cc1ccc2nc(Nc3cccc(O)c3)nc(-c3ccccc3)c2c1	10.0%
Cc1ccc(C(c2sc3nc(C)nn3c2O)N2CCN(CCO)CC2)cc1 (configuration not stated)	-7.7%
COC(=O)C1CCN(C(c2cccc(Br)c2)c2sc3nc(C)nn3c2O)CC1 (configuration not stated)	-1.2%
O=C(CN1C(=O)c2ccccc2C1=O)Nc1nnc(-c2ccc3c(c2)CCCC3)o1	98.2%
COc1cccc(NC(=O)c2oc3ccccc3c2NC(=O)c2cccc(Br)c2)c1	-1.8%
c1ccc(-n2ncc3c(N4CCCCC4)ncnc32)cc1	18.5%
O=c1[nH]c(CSCc2ccco2)nc2ccccc12	-16.9%
COc1ccc(C(=O)Nc2nnc(-c3ccc(Cl)cc3)s2)c(OC)c1	8.5%
FC(F)(F)c1cccc(COc2cccc3ccc(N4CCOCC4)nc23)c1	19.9%
Cc1cccc(-c2nnc(NC(=O)C(C)Sc3nncn3C)s2)c1 (configuration not stated)	-5.1%
O=C(CSc1nc2c(oc3ccccc32)c(=O)n1Cc1ccco1)Nc1cccc(Cl)c1	-7.8%
CCCCOc1ccc(C(=O)Nc2nnc(-c3cc(Cl)ccc3Cl)o2)cc1	81.3%
Cc1c(C)n2c(SCC(=O)N3CC(C)OC(C)C3)nnc2[nH]c1=O (configuration not stated)	8.0%
O=C(CC1(O)C(=O)Nc2ccc(Br)cc21)c1ccccn1 (configuration not stated)	-14.2%
COc1ccc(OC)c2[nH]c(=O)c(CCNC(=O)C(C)(C)C)cc12	6.6%
O=C(Nc1nnc(-c2ccc(Br)cc2)o1)c1cc(Cl)sc1Cl	3.43µg/mL*
Cc1ccc(C)c(CSc2cc(C)[nH]c(=O)n2)c1	5.2%
O=C(Nc1c(C(=O)Nc2ccc3c(c2)OCCO3)oc2ccccc12)c1cc([N+](=O)[O-])ccc1Cl	16.4%
O=C(Nc1c(C(=O)Nc2ccc(F)cc2)oc2ccccc12)c1ccccc1Br	-1.4%
CCOC(=O)c1c(NC(=O)CSc2nc3c([nH]c4ccccc43)c(=O)n2-c2cccc(Cl)c2)sc2c1CCCC2	-5.7%
COc1ccc(C)cc1-n1c(SCC(=O)N2CCN(c3ccccc3)CC2)nc2c([nH]c3ccccc32)c1=O	-3.0%
CCN1CCN(c2nc3c(c(=O)[nH]c(=O)n3C)n2CCSc2nc3ccccc3o2)CC1	1.8%
O=C(/C=C\c1ccc([N+](=O)[O-])cc1)NC1CC(=O)N(c2cccc(F)c2)C1 (configuration not stated)	-2.1%
COc1ccc(N2C(=O)C3N=NN(CC(=O)Nc4cccc(C(F)(F)F)c4)C3C2=O)cc1Cl (configuration not stated)	-7.9%
O=C(CSc1ncnc2c1nnn2Cc1ccc(F)cc1)Nc1ccc2c(c1)OCCO2	10.1%
CCOc1ccc(NC(=O)CSc2nnc(C)c(=O)n2N)cc1	64.2%
Cc1ccc(Nc2nc(N3CCN(CCO)CC3)nc3nccnc23)cc1C	2.3%
CCn1c(SCCC(C)C)nc2c1c(=O)[nH]c(=O)n2C	24.6%
Cc1cc(OC(=O)c2ccc(F)c(F)c2)c([N+](=O)[O-])c(=O)[nH]1	5.0%
O=C(Nc1nnc(-c2ccc(Br)cc2)o1)c1cccc([N+](=O)[O-])c1	69.0%
O=C(O)c1cccc(Nc2nc(-c3ccccc3)c3cc(Cl)ccc3n2)c1	10.8%
Cc1nc2ccc3nc(Nc4nc5c(F)cccc5s4)sc3c2s1	39.7%
Cc1ccc2nc(NC(=O)CSc3ccc4nnc(-c5ccccc5)n4n3)sc2c1	-6.8%
COc1ccc2c(c1)c(=O)c(C(=O)c1ccc(F)cc1)cn2Cc1cccc(C)c1	3.2%
O=C(CC1NC(=O)NC1=O)Nc1ccccc1 (configuration not stated)	-2.8%
CCc1cccc2sc(N(CCCn3ccnc3)C(=O)/C=C/c3cccs3)nc12	0.83µg/mL*
COC(=O)c1ccccc1N(C)S(=O)(=O)c1cc2c3c(c1)CCC(=O)N3CCC2	-3.0%
CN(C)S(=O)(=O)c1ccc(C(=O)Nc2nnc(-c3ccc4c(c3)OCCO4)o2)cc1	?
CC(=O)c1sc(NC(=O)c2cccc(Oc3ccccc3)c2)nc1C	14.3%

# Structures above that have a CF3 group (2):
SMILES	Mtb H37Rv
FC(F)(F)c1cccc(COc2cccc3ccc(N4CCOCC4)nc23)c1	19.9%
COc1ccc(N2C(=O)C3N=NN(CC(=O)Nc4cccc(C(F)(F)F)c4)C3C2=O)cc1Cl (configuration not stated)	-7.9%

# Some of the compounds tested; the hit share may differ from the screen's.
